eIF4H inh – inhibitors of RNA binding by human eIF4H | 290,000 tested, 0.94% active | inhibition, % at 35 µM | AID 2012 | eIF4H fluorescence polarization binding assay | Q15056;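 active = 50% or more with normal probe brightness, or confirmed in later tests; about a fifth of its hits are not listed in these tables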;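 also: calls also rest on retests at 20 µM and on dose response follow-up; 0% = protein and probe with vehicle and 100% = probe without protein; strong numbers were not always called active; many hits fall short of the cut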
CSC inhib – cancer stem cell inhibition; cancer stem cell-like cells viability, luminescence; inhibition, % at 7.5 µM; 300,000 tested, 1.1% active; AID 2717;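 active = mean at 75% or more and at least half the replicates too; tested in HMLE shEcad cells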;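 also: 0% = median of negative and 100% = median of positive control wells; the first replicate is given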
UUG fidelity – yeast start codon fidelity modulation; activity score, % at 18.7 µM; AID 602363; 350,000 tested, 0.13% active; S. cerevisiae UUG-firefly luciferase reporter, luminescence/redox ratio;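 active = replicate mean at a twofold rise or more, about +100% in these data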;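 also: firefly luciferase made from a UUG start codon reports start codon fidelity; reporter light over untreated wells divided by growth signal over untreated wells; some hits fall short of that in this replicate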
Env fusion inh – blocks HIV Env-driven cell-cell fusion; HeLa-JRFL Env/CEM21 cell fusion, luciferase; inhibition, % at 12.3 µM; 360,000 tested, 1.1% active; AID 651610;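 active = mean replicate inhibition score of at least 50 and every replicate individually at or above 50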;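 also: 0% = plate neutral controls and 100% = maraviroc near 300 nM; one replicate is shown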
MT1-MMP act inh – blocks activation of human MT1-MMP. HT1080 RFP-PRO-GFP cells, GFP/RFP ratio fluorescence, overnight; percent of plate control window, DMSO zero. GFP/RFP ratio change, % at 20 µM. AID 651647. 360,000 tested, 0.061% active. P50281;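 active = GFP/RFP ratio change of at least 30% with cell ATP level not reduced by more than half and red fluorescence within 50% of control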; also: strong numbers were not always called active
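Material: RFP-PRO-GFP reporter HT1080 cells. Dosing: single-point 20 µM compound, 1% DMSO. Controls: DMSO and RFP-L50D-GFP cell wells. Timing: cells overnight before dosing, compound overnight, 37 °C, 5% CO2. Measure: GFP/RFP fluorescence ratio.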
Rce1 inhib – blocks yeast Ras-converting enzyme. Q03530. yeast membranes, quenched prenylated peptide cleavage fluorescence. calls only. 290,000 tested, 0.27% active. AID 2563;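 active = fall in fluorescence gain of 50% or more versus controls, with final raw signal at or below 3038400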;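 also: plate controls were neutral control wells for no effect and wells lacking membranes for full effect; tested at 10 µM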
Target sequence (Q03530 whole entry, looked up): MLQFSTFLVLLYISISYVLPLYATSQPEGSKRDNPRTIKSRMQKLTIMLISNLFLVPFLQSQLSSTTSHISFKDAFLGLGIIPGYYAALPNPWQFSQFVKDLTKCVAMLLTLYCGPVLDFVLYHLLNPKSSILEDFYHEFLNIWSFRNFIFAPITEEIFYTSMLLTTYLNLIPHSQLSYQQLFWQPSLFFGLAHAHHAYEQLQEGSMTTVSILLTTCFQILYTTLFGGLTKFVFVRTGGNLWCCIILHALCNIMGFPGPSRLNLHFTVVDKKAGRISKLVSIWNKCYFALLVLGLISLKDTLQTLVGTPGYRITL
PABP polyA inh – PABP-poly(A) binding inhibition | P11940 | PABP-poly(A) RNA binding, fluorescence polarization | inhibition, % at 35 µM | 290,000 tested, 1% active | AID 2014;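 active = 50% or more with normal probe brightness, or confirmed in later tests; about a fifth of its hits are not listed in these tables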;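 also: calls also rest on retests at 20 µM and on dose response follow-up; controls were probe without protein and protein plus probe with vehicle; some compounds called inactive have numbers as strong as hits; many hits fall short of the cut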
eIF4H inh retest – also measured in eIF4H inh; calls as there; inhibition, %; compound at 20 µM; confirmation average;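 mean of two retest wells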
PABP polyA inh retest – further read-out of PABP polyA inh, marked with its call; inhibition, %; compound at 20 µM; confirmation repeats;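 mean of two retest wells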
MT1-MMP act inh RFP – recorded beside MT1-MMP act inh, whose call it bears; RFP signal change, %; measured here: RFP expression control read;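 0 = vehicle wells; hits needed this value within 50% of zero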
* hit, by the source's call.

For CN(Cc1ccccc1)C(=O)COc1cc(Cl)ccc1Cl the results were eIF4H inh 2, CSC inhib 1, UUG fidelity -9, MT1-MMP act inh 1, Rce1 inhib inactive, PABP polyA inh 5 and MT1-MMP act inh RFP 0.
For Cc1ccc2c(c1)C(=C(C#N)C#N)C(=O)N2CCN1CCCCC1 the results were eIF4H inh 8, CSC inhib -2, UUG fidelity -7, Env fusion inh 16, MT1-MMP act inh 1, Rce1 inhib inactive, PABP polyA inh 7 and MT1-MMP act inh RFP 4.
Cc1cc(C)nc(N2CCCC(C(=O)NNC(=O)c3ccncc3)C2)n1 (stereo not given) was read as eIF4H inh 3, CSC inhib -7, UUG fidelity -30, Env fusion inh 4, MT1-MMP act inh -4, Rce1 inhib inactive, PABP polyA inh 9 and MT1-MMP act inh RFP 0.
Cc1cc(NC(=O)c2c(F)c(F)c(F)c(F)c2F)no1 was read as eIF4H inh -3, CSC inhib 3, UUG fidelity -12, Env fusion inh -74, MT1-MMP act inh -8, Rce1 inhib inactive, PABP polyA inh 0 and MT1-MMP act inh RFP -5.
`CCCCNC(=O)COC(=O)c1cc(C)nc2ccccc12` gave eIF4H inh -2, CSC inhib 2, UUG fidelity 13, MT1-MMP act inh 2, Rce1 inhib inactive, PABP polyA inh -3 and MT1-MMP act inh RFP -1.
CSc1ccccc1NC(=O)COC(=O)c1ccc(-n2nc(C)cc2C)cc1 was read as CSC inhib -11, UUG fidelity -5, Env fusion inh -3, MT1-MMP act inh -3 and MT1-MMP act inh RFP -2.
`C/C(=N\NC(=O)c1ccc(CSc2nc(C)cc(C)n2)cc1)c1ccco1` gave eIF4H inh 14, CSC inhib 1, UUG fidelity -15, Env fusion inh 4, MT1-MMP act inh 3, Rce1 inhib inactive, PABP polyA inh -7 and MT1-MMP act inh RFP -1.
Screening Fc1ccc2nc(Nc3nc4c(F)cccc4s3)sc2c1 returned eIF4H inh 16, CSC inhib -6, Env fusion inh -4, MT1-MMP act inh 0, Rce1 inhib inactive, PABP polyA inh 7 and MT1-MMP act inh RFP -4.
`COc1cccc(NC(=O)CSc2nc3c(c(-c4ccco4)c2C#N)CCCC3)c1` gave eIF4H inh 2, CSC inhib 1, UUG fidelity -21, Env fusion inh -19, MT1-MMP act inh 2, Rce1 inhib inactive, PABP polyA inh -10 and MT1-MMP act inh RFP 4.
`Cn1c(NC(=O)C2c3ccccc3Oc3ccccc32)cc(=O)n(C)c1=O` gave eIF4H inh -9, CSC inhib -20, UUG fidelity -6, MT1-MMP act inh -3, PABP polyA inh 18 and MT1-MMP act inh RFP -6.
`Cc1ccc(C2=NN=C(NC(=O)CSc3nnc4c5ccccc5n(C)c4n3)SC2)cc1` gave eIF4H inh -3, CSC inhib 8, MT1-MMP act inh -7, Rce1 inhib inactive, PABP polyA inh -2 and MT1-MMP act inh RFP -8.
Screening CCOc1ccc(N2CC(C(=O)NCCCN3CCOCC3)CC2=O)cc1 (stereo not given) returned eIF4H inh 3, CSC inhib -1, UUG fidelity -2, Env fusion inh 5, MT1-MMP act inh 0, Rce1 inhib inactive, PABP polyA inh -1 and MT1-MMP act inh RFP 6.
For Cc1cc(=O)n(C)c(=O)n1CCCCOc1ccc([N+](=O)[O-])cc1 the results were eIF4H inh -6, CSC inhib 13, Env fusion inh 2, MT1-MMP act inh -5, Rce1 inhib inactive, PABP polyA inh 18 and MT1-MMP act inh RFP -13.
Screening CN(C(=O)c1ccc(NC(=O)Cc2ccc(NC(=O)C3CCN(C(=O)CCc4ccccc4)CC3)cc2)cc1)C1CC1 returned CSC inhib -4, UUG fidelity 6, Env fusion inh 1, MT1-MMP act inh 4 and MT1-MMP act inh RFP -4.
Screening CCC(=O)Nc1ccc(C(=O)Nc2cccc(OC)c2)cc1 returned eIF4H inh -2, CSC inhib 2, UUG fidelity -15, MT1-MMP act inh 0, Rce1 inhib inactive, PABP polyA inh 5 and MT1-MMP act inh RFP 4.
For Cc1cc(N=Nc2ccccc2)c(NCC(O)C(O)C(O)CO)cc1C (stereo not given) the results were eIF4H inh 1, CSC inhib -8, Env fusion inh -3, MT1-MMP act inh 22, Rce1 inhib inactive, PABP polyA inh 3 and MT1-MMP act inh RFP 0.
For O=C(OCC(=O)N1CCN(c2ccccc2)CC1)c1ccc[n+]([O-])c1 the results were eIF4H inh 0, CSC inhib -12, UUG fidelity -6, Env fusion inh -1, MT1-MMP act inh -4, Rce1 inhib inactive, PABP polyA inh 2 and MT1-MMP act inh RFP 5.
O=C(CCS(=O)(=O)c1ccc(Br)cc1)NCc1ccco1 was read as eIF4H inh 81*, CSC inhib -7, UUG fidelity -2, Env fusion inh 12, MT1-MMP act inh -5, Rce1 inhib inactive, PABP polyA inh 2, eIF4H inh retest 99*, PABP polyA inh retest 19 and MT1-MMP act inh RFP -6.
For Cc1ccc(S(=O)(=O)N2CCN(C(=O)CSc3n[nH]c(N)n3)CC2)c(C)c1 the results were CSC inhib 0, UUG fidelity -4, Env fusion inh -14, MT1-MMP act inh 1 and MT1-MMP act inh RFP 3.
`CC(C)N(C(=O)[C@H]1C[C@H](CC(=O)NCCCn2ccnc2)C(=O)N2CCc3c([nH]c4cc(CCC(=O)N(C)C)ccc34)[C@]12C)C(C)C` gave UUG fidelity -14, Env fusion inh 28, MT1-MMP act inh 3 and MT1-MMP act inh RFP 5.
Screening O=C(NCCCn1ccnc1)c1cccc(S(=O)(=O)NCc2ccccc2)c1 returned eIF4H inh 0, CSC inhib 22, UUG fidelity -6, Env fusion inh -5, MT1-MMP act inh -2, Rce1 inhib inactive, PABP polyA inh -2 and MT1-MMP act inh RFP -1.
CCOc1ccc(S(=O)(=O)N(CC)CC)cc1NC(=O)CSCc1c(C)noc1C was read as CSC inhib -2, UUG fidelity 4, Env fusion inh 17, MT1-MMP act inh 0, Rce1 inhib inactive and MT1-MMP act inh RFP -5.
Screening O=C(Nc1cccc(/C=C/c2nc3ccccc3c(=O)[nH]2)c1)c1ccccc1Cl returned eIF4H inh 2, CSC inhib 43, UUG fidelity -17, Env fusion inh -37, MT1-MMP act inh -5, Rce1 inhib inactive, PABP polyA inh -4 and MT1-MMP act inh RFP -12.
Screening C/C(CC(=O)Nc1ccc(Br)cc1)=N\NC(=O)c1cccc(O)c1 returned eIF4H inh 2, CSC inhib 0, UUG fidelity -10, Env fusion inh -3, MT1-MMP act inh -4, Rce1 inhib inactive, PABP polyA inh 1 and MT1-MMP act inh RFP -1.
Screening CCOC(=O)c1sc(NNC(=O)c2ccc(C)cc2)nc1C returned eIF4H inh 3, CSC inhib 3, UUG fidelity -8, Env fusion inh -12, MT1-MMP act inh 4, Rce1 inhib inactive, PABP polyA inh -5 and MT1-MMP act inh RFP 0.
CCCCC(CCC(=O)Nc1ccc(C(=O)OCC)cc1)C(=O)O (stereo not given) was read as eIF4H inh 6, CSC inhib -10, UUG fidelity 0, MT1-MMP act inh -1, Rce1 inhib inactive, PABP polyA inh -11 and MT1-MMP act inh RFP 0.
CC(=O)C(Sc1nc(N2CCOCC2)nc(N2CCOCC2)n1)C(=O)Nc1ccccc1 (stereo not given) was read as eIF4H inh -7, CSC inhib -17, UUG fidelity 4, Rce1 inhib inactive and PABP polyA inh -8.
Screening Cc1nc(N)sc1-c1csc(Nc2ccccc2)n1 returned eIF4H inh 12, CSC inhib 1, UUG fidelity 4, Env fusion inh -149, MT1-MMP act inh -7, Rce1 inhib inactive, PABP polyA inh 45 and MT1-MMP act inh RFP -3.
Screening O=C(N/C=N/O)C(c1ccccc1)c1ncc(C(F)(F)F)cc1Cl (stereo not given) returned eIF4H inh -12, UUG fidelity -6, Env fusion inh -11, MT1-MMP act inh -4, Rce1 inhib inactive, PABP polyA inh -5 and MT1-MMP act inh RFP -5.
CCCCCc1c(C)nc(Nc2ccc(F)cc2)[nH]c1=O was read as eIF4H inh -6, CSC inhib 41, UUG fidelity -3, MT1-MMP act inh -2, Rce1 inhib inactive, PABP polyA inh 12 and MT1-MMP act inh RFP -23.

Overlap with the part before: 3 compounds; new compounds follow.
Screening Cc1nc(N)sc1-c1csc(Nc2ccccc2)n1 returned eIF4H inh 12, CSC inhib 1, UUG fidelity 4, Env fusion inh -149, MT1-MMP act inh -7, Rce1 inhib inactive, PABP polyA inh 45 and MT1-MMP act inh RFP -3.
Screening O=C(N/C=N/O)C(c1ccccc1)c1ncc(C(F)(F)F)cc1Cl (stereo not given) returned eIF4H inh -12, UUG fidelity -6, Env fusion inh -11, MT1-MMP act inh -4, Rce1 inhib inactive, PABP polyA inh -5 and MT1-MMP act inh RFP -5.
CCCCCc1c(C)nc(Nc2ccc(F)cc2)[nH]c1=O was read as eIF4H inh -6, CSC inhib 41, UUG fidelity -3, MT1-MMP act inh -2, Rce1 inhib inactive, PABP polyA inh 12 and MT1-MMP act inh RFP -23.
For Cc1cc(=O)oc2cc(OCC(=O)Nc3ccc(CN4CCOCC4)cc3)ccc12 the results were eIF4H inh 0, CSC inhib 1, UUG fidelity -12, Env fusion inh -6, MT1-MMP act inh 0, Rce1 inhib inactive, PABP polyA inh -11 and MT1-MMP act inh RFP -3.
CN(C)c1ccc(CNC(=O)C2CCN(S(=O)(=O)c3ccc4c(c3)CCC(=O)N4)CC2)cc1 was read as eIF4H inh 26, CSC inhib -3, UUG fidelity -13, MT1-MMP act inh -2, Rce1 inhib inactive, PABP polyA inh 12 and MT1-MMP act inh RFP 1.
O=C(c1ccc([N+](=O)[O-])cc1)N1CCN(C(=O)c2cccs2)CC1 was read as eIF4H inh -13, CSC inhib -9, Env fusion inh 16, MT1-MMP act inh 3, Rce1 inhib inactive, PABP polyA inh 122, eIF4H inh retest 0, PABP polyA inh retest 1 and MT1-MMP act inh RFP 2.
For COc1cccc(NC(=S)N(CCN(C)C)C(C)c2ccco2)c1 (stereo not given) the results were eIF4H inh -6, CSC inhib -15, Env fusion inh 5, MT1-MMP act inh 2, Rce1 inhib inactive, PABP polyA inh -8 and MT1-MMP act inh RFP 3.
For Nc1nonc1-n1nnc(C(=O)N/N=C/c2c(F)cccc2Cl)c1-c1ccc2c(c1)OCO2 the results were eIF4H inh -5, CSC inhib -10, UUG fidelity -11, Env fusion inh 12, MT1-MMP act inh 0, Rce1 inhib inactive, PABP polyA inh -14 and MT1-MMP act inh RFP 4.
N#Cc1ccc(S(=O)(=O)N2CCC(C(=O)Nc3cccc(C(=O)NC4CC4)c3)CC2)cc1 was read as CSC inhib 8, UUG fidelity -7, Env fusion inh 0, MT1-MMP act inh 2 and MT1-MMP act inh RFP 0.
For CC(C)CC(COCc1ccc(Cl)cc1)N1CCN(C(=O)c2cccc(C(F)(F)F)c2)CCC1=O (stereo not given) the results were eIF4H inh -6, CSC inhib -4, UUG fidelity -8, Env fusion inh -5, MT1-MMP act inh 4, Rce1 inhib inactive, PABP polyA inh -8 and MT1-MMP act inh RFP -2.
For CC1CN(C(=O)C(C)Sc2nc3ccccc3s2)CC(C)O1 (stereo not given) the results were eIF4H inh -8, CSC inhib 1, UUG fidelity -4, MT1-MMP act inh -8, Rce1 inhib inactive, PABP polyA inh -9 and MT1-MMP act inh RFP 2.
For O=C(N/N=C/c1ccco1)C1COc2ccccc2O1 (stereo not given) the results were eIF4H inh -8, CSC inhib 32, UUG fidelity -5, Env fusion inh -20, MT1-MMP act inh 4, Rce1 inhib inactive, PABP polyA inh -3 and MT1-MMP act inh RFP 6.
`COc1cc2cnc(C3=CCCCC3)cc2cc1OC` gave CSC inhib -8, UUG fidelity 9, Env fusion inh -69, MT1-MMP act inh 2 and MT1-MMP act inh RFP 3.

From PubChem
